Calb FLC: C. albicans growth modulation with fluconazole. actives 0.57% (n = 300,000). growth inhibition, % (no concentration beside the values). C. albicans CaCi-2 (fluconazole-resistant clinical isolate) + fluconazole, Alamar Blue growth, 48 h;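 active = most replicates above 75%; inconclusive = exactly half above 75%; inactive = most below 75%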;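 note: all wells also contain fluconazole at 8 µg/ml as a sub-toxic cotreatment; 0% = median of DMSO wells and 100% = median of geldanamycin control wells; wells of about 8 µL received 7.5 nL stock; the first replicate is given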
RanGTP-Imp inh: disruptors of Ran-importin-beta complex formation – biochemical, FRET, CFP-Ran, YFP-importin-beta, homogeneous, primary screen; actives 1.1% (n = 300,000); inhibition, % (test concentration not listed); cell-free CFP-Ran/YFP-importin-beta FRET ratio;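 active = most replicates above 15%; inconclusive = exactly half above 15%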;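 note: 0% = DMSO wells and 100% = Ran loaded with GDP instead of GTP; wells of about 40 µL received 100 nL stock; the first replicate is given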
Beta cell apopt: blocks beta cell apoptosis; actives 0.8% (n = 300,000); INS-1E cytokine-induced death, ATP luminescence, 48 h; percent of positive-control rescue, neutral wells zero; protection from apoptosis, % (no concentration beside the values);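 active = all replicates at 75% or more, or half of them and the mean; inconclusive = half reach 75% but not the mean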;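 note: 0% = cytokine-treated negative control wells and 100% = positive control rescue; higher means more ATP so stronger rescue from cytokine killing; wells of about 40 µL received 100 nL stock; the first replicate is given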
Bfl-1 A1 inh: inhibitors of the anti-apoptotic protein A1, read as caspase activation. caspase activation, % (no concentration beside the values). MEF A1-2A-BIM cells, Caspase-Glo 3/7 luminescence, 3 h; percent of clofoctol response, vehicle zero. AID 2462. actives 0.066% (n = 330,000);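 active = over half of replicate activation scores above 10%, or exactly half above 10 with the replicate mean above 10; inconclusive = replicate mean below 10 yet half the replicates above 10; inactive = over half of replicates below 10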;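 note: wells of about 30 µL received 50 nL stock; many hits fall short of the cut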
LANA-H2B inh: blocks KSHV LANA binding to histone H2A/H2B; Q9QR71; cell-free LANA-H2A/H2B peptide, fluorescence polarization; inhibition, % (test concentration not listed); actives 0.6% (n = 320,000); in the data active = inhibition mostly above about 10%, no sharp cut-off; inactive = mostly below about 6.7%;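 note: stock transfer was 7.5 nL into about 10 µL; 0% = median of vehicle wells and 100% = median of positive control wells; one replicate is shown; the record names a cut of 25% in any replicate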
B2AR ag: human beta-2 adrenergic receptor agonism by FAP; P07550; Am2.2-beta2AR cells, FAP receptor internalization, flow cytometry; reference of the scale not given here; response, % (no concentration beside the values); actives 0.43% (n = 340,000); AID 504454;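 active = response above a set limit, near 3 SD of response in nonfluorescent compounds, cut at about 42% in these data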;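 note: stock transfer was 100 nL into about 11 µL; a reference agonist was the positive control; negative values mostly stem from fluorescent compounds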
Target sequence (P07550 whole entry, looked up): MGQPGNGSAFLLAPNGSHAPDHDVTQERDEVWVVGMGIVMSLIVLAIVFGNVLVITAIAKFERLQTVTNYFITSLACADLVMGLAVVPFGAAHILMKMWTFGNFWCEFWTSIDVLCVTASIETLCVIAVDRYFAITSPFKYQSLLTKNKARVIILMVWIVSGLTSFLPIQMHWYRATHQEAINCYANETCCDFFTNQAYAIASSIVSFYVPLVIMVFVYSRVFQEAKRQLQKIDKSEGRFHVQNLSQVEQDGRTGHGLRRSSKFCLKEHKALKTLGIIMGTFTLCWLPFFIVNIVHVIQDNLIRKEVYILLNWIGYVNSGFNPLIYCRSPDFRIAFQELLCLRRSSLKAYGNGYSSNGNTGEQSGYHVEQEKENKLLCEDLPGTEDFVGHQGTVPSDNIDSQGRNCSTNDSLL
UCH37 inh: inhibitors of human deubiquitinating enzyme UCH37 | inhibition, % (test concentration not listed) | actives 0.33% (n = 330,000) | Q9Y5K5 | purified proteasome/UCH37, Ub-AMC cleavage fluorescence | AID 588478;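 active = mean of two replicates above 20%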;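 note: 0% = compound-free wells with enzyme and 100% = wells lacking proteasome; stock transfer was 100 nL into about 20 µL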
Target sequence (Q9Y5K5 whole entry, looked up): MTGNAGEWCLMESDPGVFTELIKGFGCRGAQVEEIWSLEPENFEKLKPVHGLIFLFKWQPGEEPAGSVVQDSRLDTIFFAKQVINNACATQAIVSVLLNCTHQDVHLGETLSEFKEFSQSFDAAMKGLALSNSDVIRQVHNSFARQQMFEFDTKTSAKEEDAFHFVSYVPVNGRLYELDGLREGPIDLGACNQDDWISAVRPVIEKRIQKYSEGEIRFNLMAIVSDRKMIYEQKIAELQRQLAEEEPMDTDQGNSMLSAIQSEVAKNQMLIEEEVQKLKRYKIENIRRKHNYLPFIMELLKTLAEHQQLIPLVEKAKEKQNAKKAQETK
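system = Proteasome-associated human UCH37 deubiquitinase | amount = 0.15 nM proteasome as dispensed | medium = pH 7.4 Tris-HCl (50 mM) with ovalbumin, ATP-MgCl2, DTT | incubation = 30 min preincubation with enzyme, 25 min cleavage at room temperature | detection = AMC fluorescence 355/460 nm | read-out basis = percent inhibition | controls = no-proteasome and no-compound wells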
T cruzi inh: blocks replication of Trypanosoma cruzi; T. cruzi beta-gal in NIH3T3, luminescence, 90 h; inhibition, % (concentration not given with the values); actives 1.4% (n = 300,000);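 active = mean inhibition across valid replicates above about 55%, limit read from the data; inconclusive = mean below that limit but half or more replicates reach it; inactive = mean below it, under half of replicates reach it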;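 note: signal also drops with host cell toxicity which is not excluded here; 0% = plate median of DMSO wells and 100% = zero luminescence signal; higher percent means less beta-gal luminescence so fewer parasites; stock transfer was 50 nL into about 50 µL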
Starred values were filed as active, the others as inactive; i = inactive; ? = inconclusive; / = no result given; & = joins results of further samples.

SMILES	Calb FLC	RanGTP-Imp inh	Beta cell apopt	Bfl-1 A1 inh	LANA-H2B inh	B2AR ag	UCH37 inh	T cruzi inh
COC(=O)C1CCN(C(=O)COC(=O)c2cc(-c3ccccc3)nc3ccc(OC)cc23)CC1	/	/	-2.4	1.1	3.7	16.7	i	/
Cc1nc(-c2ccc(C(=O)NCCO)cc2)cs1	1.6	0.0	-4.8	-0.8	-0.9	-7.1	1.0	-9.4
COc1ccc(OC)c(/C=N/n2c(-c3n[nH]c4c3CCC4)n[nH]c2=S)c1	1.4	-0.5	0.0	0.4	3.3	-0.5	/	-7.1
CCCn1c(=O)c2ccccc2n2c(SCC(N)=O)nnc12	7.5	-3.1	7.4	-1.0	-6.1	1.8	-1.3	-3.9
COc1ccc(-c2cc(-c3ccc(N)cc3)nc(N)c2C#N)cc1OC	25.7	0.7	-9.5	-0.3	-0.1	24.6	-349.4	28.6
CCOC(=O)c1c(NC(=O)COC(=O)CNC(=O)c2ccc(Cl)cc2Cl)sc(C(=O)N(C)C)c1C	3.4	1.6	/	-0.2	3.8	-13.8	3.4	?
Fc1cccc(CN2CCSCC2)c1	33.6	5.0	-8.7	-0.2	2.0	-1.9	0.2	-7.8
Clc1nc(-c2ccccn2)nc2scc(-c3ccccc3)c12	3.4	7.2	51.1	-0.3	1.3	-12.4	2.8	14.2
CCCc1nnc(NC(=O)CCC(=O)NCc2ccccc2Cl)s1	/	-1.9	-5.2	0.1	2.7	3.0	4.8	-2.0
O=C(Nc1ccc(Br)cn1)c1ccc2nccnc2c1	-1.7	0.4	1.4	-2.2	5.0	-15.8	3.0	/
Cc1ccc2nc(/C=C/c3cccc(F)c3)ccc2c1	?	5.6	-0.9	-5.0	2.6	4.6	0.3	9.0
COCCNC(=S)N(CCO)Cc1cc2cc3c(cc2[nH]c1=O)OCCO3	32.4	-6.3	-13.7	0.6	-6.9	9.1	-140.8	-13.3
CC(C)(CNC(=O)c1ccccc1NS(C)(=O)=O)N1CCCCC1	-3.3	3.4	-7.1	-0.3	1.5	-5.8	-85.0	-8.7
C/C(=N\N(c1ccccc1)c1ccccc1)c1ccc(O)cc1	19.6	-4.9	0.7	-0.3	-6.5	-12.5	/	8.7
CCCN(CCC)CCCNC(=O)C1CCN(S(=O)(=O)c2cccc3nsnc23)CC1	1.9	1.0	-6.1	0.1	-5.9	-1.5	/	-0.2
Cc1csc(NC(=O)C2CCN(S(=O)(=O)c3ccccc3F)CC2)n1	14.4	0.7	/	-0.2	-1.8	7.0	3.5	-2.6
O=C(Nc1ccc(S(=O)(=O)N2CCCC2)cc1)c1ccc([N+](=O)[O-])cc1	0.2	5.1	1.0	0.5	4.6	5.8	0.7	12.9
C#CC(C)(C)NC(=O)c1cnc(-c2ccccc2)nc1-c1ccccc1	-4.7	0.8	-0.1	1.1	-1.7	-8.5	2.3	10.0
Cc1ccc(C(=O)NCCSC(C)(C)C)cc1	-4.6	?	/	-0.1	-1.3	-1.0	3.7	0.3
COc1ccc2c(c1)c(=O)c(C(=O)c1ccc(F)cc1)cn2CC(=O)Nc1ccc(F)cc1	8.6	-0.4	/	3.6	-2.0	9.5	6.3	8.7
Cc1ccc(OCCC(=O)NNC(=O)c2ccc(Br)cc2)cc1	/	/	-3.7	-0.2	2.2	-4.9	5.4	/
CCN(CC)c1ccc2ccc(=O)oc2c1	-34.0	95.5*	2.4	0.6	-0.3	7.9	-96.9	-23.3
O=[N+]([O-])c1cc([N+](=O)[O-])c2cccnc2c1O	23.5	3.8	5.9	-0.1	-5.8	/	/	1.7
CC(C)Oc1ccc(S(=O)(=O)N2CCOCC2)cc1NC(=O)Cc1ccsc1	/	/	-18.4	1.5	-0.9	-1.2	1.2	/
O=C(NCCc1ccccc1F)C1CCC(=O)N(CCCN2CCCC2=O)C1 (stereo unspecified)	-6.7	2.2	3.8	-0.3	-2.2	-3.4	6.3	-1.2
CC(OC(=O)c1ccncc1)C(=O)Nc1cc(S(=O)(=O)N2CCCCC2)ccc1Cl (stereo unspecified)	3.6	-3.5	1.0	1.1	/	1.1	2.5	7.5
Cc1ccccc1C(=O)NCC(=O)N1CCN(C/C=C/c2ccccc2)CC1	/	/	8.5	0.8	-2.8	-2.4	0.7	/
COCCn1ccc2c(OCC(=O)Nc3ccccc3OC)cccc2c1=O	7.7	-2.6	0.7	-0.6	/	20.9	-5.7	4.7
CC1=CC(C)(C)N(S(=O)(=O)c2ccc(F)cc2)c2ccc(C)cc21	?	4.0	13.0	0.1	-3.0	5.3	3.4	0.9
COc1ccc(C(=O)NNC(=O)CCn2nnc(-c3ccc(C)cc3)n2)cc1OC	-10.2	-1.6	1.8	-0.3	-1.0	-5.0	2.8	-0.9
CN1c2ccccc2C(=O)/C(=C\Nc2ncccn2)S1(=O)=O	-1.9	4.8	0.1	-1.0	1.9	-13.7	-13.1	3.0
CCN(CC(=O)Nc1c(F)cccc1F)C(=O)Cn1[nH]c(=O)c2ccccc2c1=O	/	/	0.2	-0.2	4.6	-3.9	2.3	/
CCOc1ccc(-c2noc(CCC(=O)O)n2)cc1	7.1	1.2	0.2	-1.2	-2.3	2.9	4.1	-1.4
Cc1cccc(CSc2nnc(NC(=O)CSc3nnc(C)s3)s2)c1	-3.5	1.4	-5.1	0.6	-3.3	8.7	-0.2	-19.0
N#C/C(=N\Nc1ccc(F)cc1)C(=O)C1CC1	27.7	0.3	5.7	-1.7	-2.2	6.3	/	-6.2
Cc1ccc(Cn2c(C)cc3c(c2=O)C(c2cccs2)C(C#N)=C(N)O3)cc1 (stereo unspecified)	-17.4	7.2	3.7	0.5	0.3	-1.0	2.4	-2.3
Cc1ccc(CNC(=O)CCCn2nc(C)c3c(C)n(-c4ccccc4)nc3c2=O)cc1	9.5	-4.9	-2.6	-0.2	-1.7	-3.4	-1.0	1.4
O=C(CN1C(=O)c2cccc3cccc1c23)NC1CCCCC1	-0.5	1.3	4.2	-0.1	-2.1	-1.9	-126.2	8.0
Cc1cc(C(=O)COC(=O)c2ccc(O)cc2)c(C)n1CC1COc2ccccc2O1 (stereo unspecified)	8.7	5.5	-6.4	0.1	-3.3	7.8	0.0	20.7
CC(C(=O)N1CCc2ccccc21)N(C)CC(=O)Nc1ccccc1Cl (stereo unspecified)	/	/	-0.6	0.1	2.7	-3.7	1.0	/
CCC1CCCCN1S(=O)(=O)c1ccc(NC(=O)c2ccncc2)cc1 (stereo unspecified)	0.5	3.7	/	-1.7	-0.9	0.8	6.0	-19.5
COc1ccc(NC(=O)CSc2nnc(-c3cccnc3)s2)cc1	-1.6	1.1	6.5	0.7	2.5	-16.4	/	-1.1
C=CCNC(=O)CSCc1ccc(Br)cc1	6.6	-0.2	-11.5	1.2	5.2	1.4	-1.2	-2.6
Cn1c(=S)n(/N=C/c2cccs2)c2ccccc21	-2.2	1.1	/	0.3	-0.1	-11.0	/	-1.0
COc1cccc(C(=O)NCC(=O)n2nc(C)cc2C)c1	-14.3	-0.5	-7.6	0.3	0.4	3.7	0.7	1.4
CC(C)NC(=O)CN(Cc1ccc2c(c1)OCO2)C(=O)CCC(=O)Nc1ccccn1	-3.4	1.7	2.2	0.6	-2.8	-0.9	0.8	17.9
CCOC(=O)C1=C(COC(=O)C2CC(=O)N(c3ccccc3F)C2)NC(=O)NC1C (stereo unspecified)	/	/	-3.7	0.4	3.3	4.3	-1.7	/
Cc1ccc(C)c(OCc2cc(C(=O)N3CCN(c4cnccn4)CC3)no2)c1	-5.2	?	-1.0	1.5	3.9	-4.9	-31.8	9.2
Cc1cccc(N2CCN(S(=O)(=O)c3ccc4c(c3)CC(C)N4C(=O)C3CC3)CC2)c1C (stereo unspecified)	1.2	-0.3	11.1	0.0	-5.2	-7.2	1.9	-4.8
Cc1nonc1NC(=O)c1oc2ccc(F)cc2c1C	-1.8	-0.1	-2.9	0.1	10.9	0.2	1.2	8.9
Cc1cc(NCc2cccnc2)no1	16.2	4.2	-4.0	0.5	2.1	-2.8	1.4	-2.2
C[C@H](CO)N1C[C@H](C)[C@@H](CN(C)S(=O)(=O)c2cn(C)cn2)Oc2c(NC(=O)Nc3ccc4c(c3)OCO4)cccc2C1=O	/	/	1.1	-0.9	6.3	1.3	3.1	/
CCCCCOC(=O)CC(C(=O)OCCCCC)N1CCCCC1 (stereo unspecified)	-2.8	1.0	0.6	0.0	-7.1	5.1	3.9	1.0
Cc1cccc2c(-c3ccccc3)cc(=O)[nH]c12	4.2	-3.3	15.2	0.7	1.5	-6.8	2.9	-9.8
Clc1ccccc1-c1nnc(CNC2CC2)o1	-2.6	-2.2	1.2	0.4	-1.3	-3.1	5.8	-11.0
CC1=CC(c2ccccc2)=Nc2ccc(C)cc2N1	-9.8	0.9	-0.2	-6.6	-1.0	-0.9	-4.0	-16.3
COc1cc(/C=N/Nc2nc(C)cc(=O)[nH]2)ccc1O	-5.9	5.0	-13.7	-0.2	-0.7	10.7	/	-2.6
Cc1cccc(NC(=O)CSc2n[nH]c(-c3cccnc3)n2)c1	2.5	3.8	-1.7	-0.5	4.1	-1.4	/	-3.1
O=c1oc(-c2cccs2)nc2c1cnn2-c1ccccc1	-5.0	1.5	-11.0	0.1	1.3	18.4	-187.5	-2.8
COc1ccc(C)cc1N(CC(=O)Nc1ccc2c(c1)OCCO2)S(C)(=O)=O	7.5	0.9	-3.5	-0.1	-0.1	2.1	2.1	2.6

Following part
SMILES	Calb FLC	RanGTP-Imp inh	Beta cell apopt	Bfl-1 A1 inh	LANA-H2B inh	B2AR ag	UCH37 inh	T cruzi inh
CCOc1ccc(C(=O)CC(C(=O)O)N2CCCCC2)cc1 (stereo unspecified)	/	/	-7.0	-0.5	0.4	-2.0	2.1	/
CCCCN1CC[C@H]2C=CC[C@@H](C(=O)Nc3ccc(OC)cc3)[C@H]2C1=O	-4.4	-0.9	-4.7	2.4	4.5	-3.0	1.7	-10.4
Cc1ccc(C(=O)NNC(=O)c2n[nH]c(=O)c3ccccc23)cc1C	/	/	-0.5	0.1	-2.5	3.4	/	/
Cc1cccc(OC(=O)NCCOC(=O)N(O)c2ccc(Cl)cc2)c1	-23.1	-2.3	-3.9	2.3	-0.9	6.4	2.6	-20.4
CCOC(=O)C1CCCN(CCCc2ccccc2)C1 (stereo unspecified)	-4.9&0.4	2.1&-6.2	3.7&-0.3	-0.4&1.6	-3.7&-0.2	1.6&-0.5	4.7&-1.8	27.5&23.8
CCOC(=O)C(C(=O)Nc1ccccc1C)C1CCCCC1 (stereo unspecified)	-11.5	-8.6	-0.6	0.6	-0.1	4.8	2.5	-26.9
Cc1cccc(OCC(=O)N/N=C/c2ccc3c(c2)OCO3)c1	-1.4	6.3	-1.1	-0.4	-1.8	-5.8	/	3.8
Cc1nn(Cc2ccccc2)c(Cl)c1/C=C1\NC(=S)NC1=O	?	-2.3	-12.5	-0.2	5.8	9.6	9.1	30.6
CC(C)NC(=O)C(=O)NCc1ccccn1	3.9	-3.9	-5.6	-0.3	-1.6	-2.3	0.6	0.4

High-throughput results (PubChem)
